Compound activity (PubChem BioAssay)
MITF inh: MITF inhibition; 0.28% of 37,000 active; inhibition, % (concentration not given with the values); TRPM1 promoter luciferase, luminescence, 24 h;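 active means most replicates at 85% or more, or half of them and the mean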;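 further: human melanocyte line stably carrying TRPM1 promoter luciferase reporter; 0% = vehicle wells and 100% = a positive control; the first replicate is given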
The depositor's hits bear a star.

SMILES | MITF inh
O=C(NCCCn1ccnc1)c1c(F)cccc1F | -9
COC(=O)c1ccccc1NC(=O)CSc1nc2c(c(C(F)(F)F)n1)CCCC2 | -10
O=C(CSc1nnc(-c2ccccc2Cl)o1)c1ccc2c(c1)OCCO2 | -10
Cc1nnc2sc(-c3cccc(NC(=O)C(C)Oc4ccc(Cl)cc4Cl)c3)nn12 (stereo not given) | 46
COC(=O)Cc1c(C)nc2nc(Cc3ccccc3)[nH]n2c1=O | 8
CSc1ccc(C(Nc2cc(C)ccn2)c2ccc3ccc(C)nc3c2O)cc1 (stereo not given) | 35
COC(=O)c1ccc(OC(=O)CS(=O)c2ccc(C(F)(F)F)cc2[N+](=O)[O-])cc1 (stereo not given) | 26
COc1ccc(F)cc1S(=O)(=O)n1cnc2cc(C)c(C)cc21 | 31
O=C(O)CSc1c[nH]c2ccccc12 | 43
COC(=O)c1ccccc1NC(=O)NCCc1ccccc1OC | -13
Cc1cc2nn(-c3ccc(F)cc3)nc2cc1NC(=O)COc1ccc(Br)cc1 | -27
COc1cc(NC(=O)COc2ccccc2Br)c(OC)cc1Cl | -59
CCOc1ccc(-n2c(SCc3nc(-c4cccs4)no3)nnc2-c2ccncc2)cc1 | 21
COc1ccc(NC(=O)C23CC4CC(C2)CC(C(=O)Nc2ccc(OC)c(OC)c2)(C4)C3)cc1OC | -3
Cc1ccc(NC(=O)c2ccco2)c(NC(=O)COc2ccccc2)c1 | 18
Cc1nnc(SCc2nnnn2-c2ccccc2)[nH]c1=O | -29
COc1ccc(C)cc1S(=O)(=O)N1CCC(C(=O)Nc2cccc(C(C)=O)c2)CC1 | -8
CCc1cccc(C)c1NC(=O)CN(C)S(=O)(=O)c1ccccc1 | 7
CCOc1ccccc1NC(=O)Cc1coc2ccc(C)cc12 | 17
O=C(CSc1nnnn1-c1ccccc1)Nc1ccc(Br)cc1F | 14
CCOC(=O)c1c(NC(=O)C23CCC(C)(C(=O)O2)C3(C)C)sc2c1CCCC2 (stereo not given) | 10
CS(=O)(=O)N(CC(=O)Nc1ccc(F)cc1F)c1ccc2c(c1)OCCO2 | -6
CCc1c(C)[nH]n(-c2ccc(Oc3ccccc3)c(S(=O)(=O)O)c2)c1=O | 4
Cc1ccc(NC(=O)COc2ccccc2)c(NC(=O)c2ccccc2I)c1 | -11
COc1ccc(S(=O)(=O)NCCc2c[nH]c3ccccc23)c2ccccc12 | 10
CCn1c(SCC(=O)Nc2ccccc2N2CCOCC2)nnc1-c1ccccc1O | -4
Cc1cccc(OCCn2c(S(=O)(=O)O)nc3ccccc32)c1 | -4
COC(=O)COc1cc(Cl)c(C2NC(=S)NC(c3ccccc3)=C2C(C)=O)cc1OC (stereo not given) | 16
Cc1cc(C)cc(NC(=O)CSc2nnc(-c3ccncc3)n2-c2ccccc2)c1 | 33
Cc1ccc(NC(=O)CSc2nnc(N)s2)c(Br)c1 | -35

Exported field by field: entries from further up.
SMILES: CS(=O)(=O)N(CC(=O)Nc1ccc(F)cc1F)c1ccc2c(c1)OCCO2
  MITF inh: -6
SMILES: CCc1c(C)[nH]n(-c2ccc(Oc3ccccc3)c(S(=O)(=O)O)c2)c1=O
  MITF inh: 4

(next part)
SMILES | MITF inh
COc1ccc(CCNC(=O)c2cc(-c3ccccn3)nc3c(Cl)cccc23)cc1OC | 32
COc1ccccc1NC(=O)CN1C(=O)c2cccc3cccc(c23)C1=O | 16
O=C1Nc2ccc(S(=O)(=O)NCc3ccccn3)c3cccc1c23 | 11
CC(=O)c1cc(C)ccc1OC(=O)CCN1C(=O)c2ccccc2C1=O | -13
CC(NS(=O)(=O)c1ccc(F)cc1)C(=O)Nc1ccccc1Sc1ccccc1 (stereo not given) | 12
CCOC(=O)c1nnn(-c2nonc2-n2cccc2)c1CN1CCOCC1 | -24
Cc1cc(C)c2c(CC(=O)N(CC#N)CC#N)coc2c1 | 6
O=C(O)c1cccc(NS(=O)(=O)c2cccc(C(=O)Nc3ccc(F)cc3)c2)c1 | 16
O=C(COc1cccc2ccccc12)Nc1cc([N+](=O)[O-])ccc1O | 8
N#CCc1ccc(NC(=O)CN2C(=O)c3ccccc3S2(=O)=O)cc1 | -8
COc1ccc(OC)c(NC(=O)C(=O)NCc2ccco2)c1 | 13
COC(=O)Nc1sc(C)c(C)c1C(=O)NCc1cccnc1 | -19
COc1cccc(C(=O)COc2cccc(NC(=O)c3ccc(Cl)c(Cl)c3)c2)c1 | 34
COc1cc(S(=O)(=O)NCCN2CCOCC2)ccc1Br | 1
O=C(NCc1ccco1)c1cnn2c(C(F)F)cc(C3CC3)nc12 | -10
O=C(COc1ccc(Cl)cc1)Nc1ccc(O)c(-c2nc3ccccc3o2)c1 | 57
CCc1ccccc1NC(=O)Cn1c(-c2nonc2N)nc2ccccc21 | -5
O=C(Cn1cnc2scc(-c3ccc(F)cc3)c2c1=O)Nc1ccc(F)cc1 | 17
O=C(NCc1cccnc1)C1CC(c2ccccc2O)=NO1 (stereo not given) | 4
NC(=O)CSc1nnc(-c2ccco2)n1-c1ccccc1 | -8
COc1ccccc1NC(=O)c1ccc(NS(=O)(=O)c2cccc3cccnc23)cc1 | -12
O=C(NCCN1CCN(C(=O)Nc2ccccc2)CC1)Nc1ccccc1 | 1
CN(C)c1nc(SCC(N)=O)nc(N(C)C)n1 | 3
Cc1c(-c2ccc(Cl)cc2Cl)nc2ccccc2c1C(=O)NCc1ccccn1 | 14
O=c1[nH]c(SCc2n[nH]c(=S)n2-c2ccccc2)nc2sc3c(c12)CCC3 | -32
c1ccc(-c2nnc(SCc3nc4ccccc4s3)n2-c2ccccc2)cc1 | 29
CCc1ccc(NC(=O)CSc2nc3ccccc3[nH]2)cc1 | 33
CC(=O)c1c(C)nn(CC(O)COc2ccc(C(=O)c3ccc(Cl)cc3)cc2)c1C (stereo not given) | 34
O=C(CSc1nc2ccccc2s1)c1cc2ccccc2oc1=O | -18
Cc1ccc2nc(-c3ccccn3)cc(C(=O)NCc3cnn(C)c3)c2c1 | -14
COc1ccc([N+](=O)[O-])c(NC(=O)c2cnn3c(C(F)F)cc(-c4ccc(C)cc4)nc23)c1 | 28
COc1cc(-c2nc3sc4c(c3c(=O)[nH]2)CCCC4)cc(Br)c1OCC(=O)O | 5
COc1cccc(C2C(C(=O)c3ccco3)C(=O)C(=O)N2CCN(C)C)c1OC (stereo not given) | -5
COc1c(Cl)ccc(Cl)c1C(=O)Nc1ccc(S(=O)(=O)Nc2cc(C)nc(C)n2)cc1 | 6
CCC(=O)N1CCN(c2ccc(Cl)cc2NC(=O)COc2cc(C)c(Cl)c(C)c2)CC1 | 12
O=C(CSc1nc2ccccc2c(=O)n1CC1CCCO1)c1ccc(Br)cc1 (stereo not given) | 9
COc1ccc(NC(=O)c2cccc(NC(=O)C3C4CC5OC(=O)C3C5C4)c2)c(OC)c1 (stereo not given) | 9
Cc1cc(C)c(OCCCCNCCO)c(C)c1 | 4
O=C(Nc1ccc(Cl)c(C(F)(F)F)c1)C(Cc1ccccc1)N1C(=O)C2CCCCC2C1=O (stereo not given) | -3
Cc1ccc(-c2cc(C(=O)Nc3sc(C)c(-c4ccccc4)c3C(N)=O)c3ccccc3n2)o1 | -31

Next part (seven carried over from the part before).
SMILES | MITF inh
COc1c(Cl)ccc(Cl)c1C(=O)Nc1ccc(S(=O)(=O)Nc2cc(C)nc(C)n2)cc1 | 6
CCC(=O)N1CCN(c2ccc(Cl)cc2NC(=O)COc2cc(C)c(Cl)c(C)c2)CC1 | 12
O=C(CSc1nc2ccccc2c(=O)n1CC1CCCO1)c1ccc(Br)cc1 (stereo not given) | 9
COc1ccc(NC(=O)c2cccc(NC(=O)C3C4CC5OC(=O)C3C5C4)c2)c(OC)c1 (stereo not given) | 9
Cc1cc(C)c(OCCCCNCCO)c(C)c1 | 4
O=C(Nc1ccc(Cl)c(C(F)(F)F)c1)C(Cc1ccccc1)N1C(=O)C2CCCCC2C1=O (stereo not given) | -3
Cc1ccc(-c2cc(C(=O)Nc3sc(C)c(-c4ccccc4)c3C(N)=O)c3ccccc3n2)o1 | -31
Oc1c(C(Nc2ccccn2)c2ccccn2)cc(Cl)c2cccnc12 (stereo not given) | 56
COc1cccc(C(=O)COc2ccc(NC(=O)c3ccccc3Cl)cc2)c1 | -18
O=c1[nH]cnc2c1cnn2Cc1ccc(Cl)cc1 | -16
O=S(=O)(CCSc1ccccn1)c1nc2ccccc2s1 | 13
Cc1csc(SCC(=O)Nc2ccc3c(c2)OCCO3)n1 | -50
Cc1cccc(NC(=O)CSc2nnc(-c3ccco3)n2-c2ccccc2)c1C | 16
O=C(NCCCN1CCOCC1)C1CC(c2cccc(Br)c2)=NO1 (stereo not given) | 6
CC(NS(=O)(=O)c1ccc(F)cc1)C(=O)Nc1ccc(F)c(Cl)c1 (stereo not given) | 13
CC(C)(C)C1CCc2c(sc(NC(=O)COc3ccc(Cl)cc3)c2C(N)=O)C1 (stereo not given) | -6
O=C(CSc1nnc(-c2cccc(Cl)c2)o1)Nc1ccccc1 | -3
O=c1[nH]c2ccccc2n1CCCSc1nnc2c(n1)[nH]c1ccccc12 | -5
O=C(c1ccco1)n1nc(-c2ccc(Cl)cc2)nc1NCc1ccco1 | -81
COc1ccc(NC(=O)CSc2n[nH]c(-c3ccncc3)n2)cc1 | -10
Cc1cc(C)nc(SCC(O)COc2ccc(Cl)cc2)n1 (stereo not given) | -5
Cc1cc(OCC(=O)Nc2cccnc2)cc(C)c1Cl | -27
Cc1ccc(N(C(C)C(=O)Nc2cc(Cl)ccc2Oc2ccccc2)S(C)(=O)=O)cc1C (stereo not given) | 13
COc1ccccc1-n1c(SCC(N)=O)nc2ccc(I)cc2c1=O | 32
Cc1c(Cl)cccc1Nc1nc(N)nc(CSCCO)n1 | -25
Cc1cc(OCC(=O)Nc2cccnc2)c(C)cc1Br | -22
COc1ccc(NC(=O)c2cc(S(=O)(=O)Nc3ccc(OC)cc3)c(Cl)cc2Cl)cc1 | -13
Cc1cc(Cl)c(S(=O)(=O)NC2CCCC2)cc1OCC(N)=O | 3
COc1ccccc1C(=O)Oc1c(CN2CCOCC2)cc(Cl)c2cccnc12 | 46
O=C(CSC1CC(=O)N(c2cc(Cl)cc(Cl)c2)C1=O)Nc1ccccc1F (stereo not given) | 9
COC(=O)c1sc(S(=O)(=O)NCc2ccccc2)c(C(=O)OC)c1C | 2
CCOc1ccc(N2C(=O)CC(SCc3nc4ccccc4[nH]3)C2=O)cc1 (stereo not given) | 6
CCOC(=O)c1c(C2COc3ccccc3O2)csc1NC(=O)c1ccco1 (stereo not given) | -20
O=C1c2ccccc2C(=O)N1CCc1nc2ccccc2c(=O)n1Cc1ccco1 | 9
CC(=O)Nc1ccc(NC(=O)CCCC(=O)O)cc1 | -13
Cc1nn2c(CN(c3ccccc3)S(=O)(=O)c3ccccc3)nnc2c2ccccc12 | 18
Cc1cc(Br)cc2c1NC(=O)C2(O)CC(=O)c1ccco1 (stereo not given) | -3
CCn1c2ccccc2c2nnc(SCC(N)=O)nc21 | -4
Cc1ccc(-n2c(C)nnc2SCC(=O)Nc2ccc(Br)c(C)c2)cc1C | 2
COc1ccc(NC(=O)C(=O)NCc2ccccn2)cc1 | -66
Cc1nc(SCC(=O)N2c3ccccc3CCc3ccccc32)n[nH]1 | 9
O=C(CSc1nc2c(c(C(F)(F)F)n1)CCCC2)N1c2ccccc2Sc2ccccc21 | 11
Cn1c(SCC(=O)N2CCCCC2)nnc1-c1cccc(NC(=O)c2ccccc2)c1 | 7
CC(=O)Nc1ccc(C(=O)CSc2nnc(-c3ccccc3Cl)o2)cc1 | -56
COc1ccccc1-c1cc(-c2ccccc2)nc(SCC(=O)c2cc3ccccc3oc2=O)c1C#N | 15
COc1ccc(OC)c(NC(=O)Cn2cc(C(C)=O)c3ccccc32)c1 | 31
COc1cc2c(cc1NC(=O)CCOc1ccccc1C)oc1ccccc12 | -23
COc1ccc(OC)c(N(CC(=O)Nc2ccc(F)c(F)c2)S(C)(=O)=O)c1 | -11
COC(=O)c1cc(COc2ccc3c(c2)oc(=O)c2ccccc23)c(C)o1 | 29
CCc1ccccc1NC(=O)COc1ccc2c(=O)c(Oc3ccccc3Cl)coc2c1 | 13
COc1ccc(C)cc1Nc1nc(N)nc(-c2oc3ccccc3c2C)n1 | -6
Cc1ccc(NC(=O)CNC(=O)c2ccco2)cc1 | -105
COc1ccc(NC(=O)CSc2nnc(N)s2)cc1Cl | -19
Cn1c(SCC(=O)Nc2c(Cl)cccc2Cl)nnc1-c1ccc(NC(=O)c2ccc(F)cc2)cc1 | -5
CCn1c(SCC(=O)Nc2c(F)cc(F)cc2Br)nnc1-c1ccccc1F | -1
COc1ccc(C)cc1NC(=O)CN(c1cc(Cl)ccc1OC)S(C)(=O)=O | -10
O=C(CCc1nc(-c2ccc(Cl)cc2)no1)NC1CCCCC1 | 0

Next section:
SMILES | MITF inh
O=C(COc1ccc2ccccc2c1)Nc1ccc(O)cc1C(=O)O | 6
Oc1c(C(Nc2cccnc2)c2ccccc2F)ccc2cccnc12 (stereo not given) | 59
O=C(CSc1nnc(-c2ccccc2)n1-c1ccccc1)c1ccc(F)cc1 | -16
COc1ccc(-c2noc(CSc3nnc(-c4cccs4)n3-c3ccccc3)n2)cc1OC | 51
Cc1ccccc1-c1cc(C(=O)NCCCn2ccnc2)c2cc(Cl)ccc2n1 | 26
COc1ccc(NC(=O)CNS(=O)(=O)c2ccccc2)cc1OC | -15
O=C(Nc1cccc([N+](=O)[O-])c1)c1ccc(Cn2nnc3ccccc32)cc1 | -1
Cc1cc(C)nc(SCC(=O)c2c(C)[nH]c3ccccc23)n1 | -29
COc1cc([N+](=O)[O-])ccc1NC(=O)NCc1ccco1 | -42
COC(=O)c1c(NC(=O)CN2C(=O)c3ccccc3S2(=O)=O)sc2c1CCCC2 | -2
O=C(CSc1nc2ccccc2[nH]1)Nc1cccc(C(F)(F)F)c1 | -16
CS(=O)(=O)N(CC(=O)NC1CC1)c1ccccc1 | -5
CC(C)(C)c1ccc(OCC(O)Cn2cnc3ccccc32)cc1 (stereo not given) | 30
Clc1ccc(OCCSCc2nc3ccccc3[nH]2)cc1 | 31
Cc1[nH]c2ccccc2c1C(=O)CSc1nnc2ccccn12 | -92
Cc1cc(Oc2ccccc2)nc(SCC(N)=O)n1 | 5

Individual results from above:
For MITF inh, `Cc1cc(Oc2ccccc2)nc(SCC(N)=O)n1` has 5
For MITF inh, `O=C(CSc1nc2ccccc2[nH]1)Nc1cccc(C(F)(F)F)c1` has -16
For MITF inh, `Clc1ccc(OCCSCc2nc3ccccc3[nH]2)cc1` has 31
For MITF inh, `CC(C)(C)c1ccc(OCC(O)Cn2cnc3ccccc32)cc1` (stereo not given) has 30

Not all compounds are listed; count on the stated rates, not on these rows.
